GIRK2 activ: opens human GIRK2 potassium channels | P48051 | HEK293-GIRK2 thallium flux, Thallos fluorescence | calls only for hits at 25 µM | actives 0.05% (n = 63,000) | AID 1259325;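 active means among the strongest 0.2% of first-round signals and kept after retests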;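 further: first round at about 10 µM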
Target sequence (P48051 whole entry, looked up): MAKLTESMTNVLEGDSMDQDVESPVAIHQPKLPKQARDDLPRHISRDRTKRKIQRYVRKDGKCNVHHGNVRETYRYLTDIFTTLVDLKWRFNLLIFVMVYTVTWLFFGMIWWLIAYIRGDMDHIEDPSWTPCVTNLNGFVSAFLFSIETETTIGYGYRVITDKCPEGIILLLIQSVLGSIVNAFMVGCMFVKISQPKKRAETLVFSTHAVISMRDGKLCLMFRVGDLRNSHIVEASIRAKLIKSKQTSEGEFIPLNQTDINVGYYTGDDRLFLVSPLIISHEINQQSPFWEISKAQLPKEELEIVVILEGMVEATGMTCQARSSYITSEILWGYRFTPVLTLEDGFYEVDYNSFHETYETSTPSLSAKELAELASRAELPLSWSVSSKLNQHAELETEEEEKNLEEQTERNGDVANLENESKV
Calls only; i = inactive. Not all compounds are listed (hit frequency here may not be typical).

SMILES	GIRK2 activ
NC(=O)c1ccc(NC(=O)C2CCN(c3ccc(-c4ccccc4)nn3)CC2)cc1	i
Cc1cncn(CC(=O)Nc2ccccc2OC(F)(F)F)c1=O	i
CCCn1c(C(=O)NCCCCO)cc2c(=O)n(C)c(=O)n(C)c21	i
Cc1c(C)n2c3c(=O)n(CCN4CCOCC4)c(=O)n(C)c3nc2n1-c1ccc(C(F)(F)F)cc1	i
Cc1cc(C)cc(Nc2nc(C)cc3nn(CC(=O)N(C)c4ccccc4)c(=O)n23)c1	i
CS(=O)(=O)N1CCN(C(=O)C2CCCN(c3cc(-n4cccn4)ncn3)C2)CC1 (centres undefined)	i
CS(=O)(=O)c1ccc2nc(NC(=O)C3COCC(=O)N3Cc3ccccc3)sc2c1 (centres undefined)	i
O=S(=O)(c1ccc(F)c(Cl)c1)N1CC(c2nc(-c3cccs3)no2)C1	i
Cc1cc(CCNS(=O)(=O)c2ccc(Br)cc2)on1	i
COc1cccc(NC(=O)c2cc(-c3ccc(Cl)cc3[N+](=O)[O-])oc2C)c1	i
Cc1cc(CCNC(=O)c2ccc(=O)[nH]n2)on1	i
COC(=O)CS(=O)(=O)C1CCN(S(=O)(=O)/C=C/c2ccccc2)CC1	i
O=C(NCc1ccc(F)cc1)C(=O)Nc1ccccc1[N+](=O)[O-]	i
Cc1cc(C)cc(NC(=O)C(=O)NCC(c2cccs2)N2CCOCC2)c1 (centres undefined)	i
O=C(CSc1ncccc1-c1nc2ccccc2[nH]1)NC1CCCC1	i
Nc1nc(SCC(=O)Nc2ccc(F)c(Cl)c2)n[nH]1	i
O=C(CSc1nc(-c2ccccc2)cs1)Nc1nc(-c2ccccc2)ns1	i
O=C(CCC1CCCCC1)Nc1cc(C2CC2)nn1-c1nc(-c2ccccc2)cc(=O)[nH]1	i
CCCNC(=O)Cn1cc(C(=O)Nc2ccccc2)c(=O)c2ccc(C)nc21	i
COc1cc(C)c(C)cc1S(=O)(=O)Nc1ccc2c(c1)N(S(=O)(=O)c1ccccc1)CCC2	i
COc1ccc(OCC(=O)Nc2ccc3c(c2)N(S(=O)(=O)c2ccccc2)CCC3)cc1	i
COc1cccc2cc(C(=O)N3CCC(Oc4ccc(Cl)cn4)CC3)oc12	i
C#C[C@]1(O)CC[C@H]2[C@@H]3[C@H](C)CC4=C(CCC(=O)C4)[C@H]3CC[C@@]21C	i
COc1ccccc1N1CCN(CCNC(=O)C(=O)NC(C)(C)C)CC1	i
COc1ccccc1NC(=O)Nc1ccc(Nc2ccc(-n3cccn3)nn2)cc1	i

(more compounds)
SMILES	GIRK2 activ
CC(=O)N1CCc2c(sc(NC(=O)C3CC3)c2-c2nc3ccccc3s2)C1	i
CNC(=O)/C(C#N)=C1/SC(Cc2ccc(OC)cc2)C(=O)N1c1cccc(C)c1 (centres undefined)	i
COc1cc(NC(=O)c2cc(=O)c(OCc3ccccc3)cn2C)cc(OC)c1OC	i
CCCc1cc(SCc2csc(-c3ccccc3)n2)ncn1	i
COc1ccc(CNC(=O)N2CCN(CC(C)O)CC2)cc1OC (centres undefined)	i
COc1ccc(OC)c(C2C(C(=O)Nc3ccccc3)C(C)Nc3ncnn32)c1 (centres undefined)	i
COCCc1nnc(NC(=O)Cc2ccccc2Cl)o1	i
Cc1csc(C(=O)Nc2ccc(-n3nnn(CC(=O)NC4CC4)c3=O)cc2)c1	i
O=C(NCCN1CCCC1)C1CCN(c2ncccc2-c2nc(-c3ccccc3)no2)CC1	i
CCCS(=O)(=O)N1CCCc2ccc(NS(=O)(=O)c3cc(OC)ccc3OC)cc21	i
COc1ccc(-c2noc(-c3c(C)cc(C)n(CC(=O)Nc4ccc5c(c4)OCO5)c3=O)n2)cc1	i
O=c1c(O[C@@H]2O[C@H](CO)[C@H](O)[C@H](O)[C@H]2O)c(-c2ccc(O)c(O)c2)oc2cc(O)cc(O)c12	i
Cc1ccc(S(=O)(=O)Nc2ccccc2C(=O)Nc2ccc(C)cc2C(=O)c2ccccc2)cc1	i
Cc1cc(C(=O)N2CCC(Cn3ccnc3-c3ccccc3)CC2)no1	i
CSCC(C)(O)CNC(=O)CC1CCCC1 (centres undefined)	i
CC(Oc1cccc(Cl)c1)C(=O)Nc1cc(N2CCN(C)CC2)ncn1 (centres undefined)	i
O=C(Nc1c[nH]c2ccccc12)N1CCc2ccccc21	i
CCc1cccc2sc(N3CCN(C(=O)Cn4c(=O)oc5ccccc54)CC3)nc12	i
CC(=O)N1CCC(Oc2ncccn2)CC1	i
COCCNC(=O)N1CCN(CC(=O)c2ccco2)CC1	i
O=C(Cc1cccs1)Nc1ccc(N2CCCN(C(=O)C3CC3)CC2)cc1	i
O=C(O)CC(CC(=O)NCC1CCN(C(=O)/C=C/c2ccco2)CC1)c1cccs1 (centres undefined)	i
Cc1cn2c3c(=O)[nH]c(=O)n(C)c3nc2n1CCCN1CCc2ccccc2C1	i
O=C(Cc1cc(=O)[nH]c(SCc2ccccc2)n1)Nc1ccc(OC(F)(F)F)cc1	i
Cc1nnc(C2CCCN(C(=O)Nc3cccs3)C2)s1 (centres undefined)	i

3 compounds already listed, ordered by length of the SMILES, ascending:
SMILES	GIRK2 activ
Cc1cc(C(=O)N2CCC(Cn3ccnc3-c3ccccc3)CC2)no1	i
CC(=O)N1CCc2c(sc(NC(=O)C3CC3)c2-c2nc3ccccc3s2)C1	i
CCCS(=O)(=O)N1CCCc2ccc(NS(=O)(=O)c3cc(OC)ccc3OC)cc21	i

Part of the list above, with bars between the fields.
SMILES | GIRK2 activ
CCCS(=O)(=O)N1CCCc2ccc(NS(=O)(=O)c3cc(OC)ccc3OC)cc21 | i
COc1cc(NC(=O)c2cc(=O)c(OCc3ccccc3)cn2C)cc(OC)c1OC | i

Returning to the listing; the 5 compounds before the break are reprinted first.
SMILES	GIRK2 activ
O=C(Cc1cccs1)Nc1ccc(N2CCCN(C(=O)C3CC3)CC2)cc1	i
O=C(O)CC(CC(=O)NCC1CCN(C(=O)/C=C/c2ccco2)CC1)c1cccs1 (centres undefined)	i
Cc1cn2c3c(=O)[nH]c(=O)n(C)c3nc2n1CCCN1CCc2ccccc2C1	i
O=C(Cc1cc(=O)[nH]c(SCc2ccccc2)n1)Nc1ccc(OC(F)(F)F)cc1	i
Cc1nnc(C2CCCN(C(=O)Nc3cccs3)C2)s1 (centres undefined)	i
Cn1cc(CC(=O)Nc2ccc3c(c2)C(=O)N2CCCCC2CCO3)c2ccccc21 (centres undefined)	i
COc1ccc(C(=O)Oc2ccc(/C=C/c3ccncc3)cc2OC)cc1OC	i
O=C(Nc1nc2c(s1)COCC2)c1ccc2c(c1)OCO2	i
CC1(C)SC2C(NC(=O)Cc3ccccc3)C(=O)N2C1C(=O)O (centres undefined)	i
COc1ccc(C2NC(=O)NC(C)=C2C(=O)OC2CCCCC2)cc1 (centres undefined)	i
COc1ccc(NC(=O)CSC2=NNC3C4CC(c5ccccc5)NN4C=CN23)cc1Cl (centres undefined)	i
CC(O)(CNC(=O)/C=C/c1cccs1)c1cccs1 (centres undefined)	i
COc1cc2c(cc1OC)CN(C(=O)c1ccc(-n3cccn3)nn1)CC2	i
O=C(C1=C(O)C(=O)N(c2ccccn2)C1c1ccc(Cl)cc1)c1ccco1 (centres undefined)	i
Cc1nc(-c2cccc(NC(=O)CN3CCN(c4ccc5c(c4)OCO5)C3=O)c2)cs1	i
Cc1noc(C)c1S(=O)(=O)N1CCCC(c2nnc(-c3ccccc3F)s2)C1 (centres undefined)	i
Cc1cn2c3c(=O)n(CCN4CCCCC4)c(=O)n(C)c3nc2n1CCO	i
CC(C)NC(=O)N1CCCC(c2nnc(-c3ccc4c(c3)OCO4)o2)C1 (centres undefined)	i
Cc1ccccc1Cn1c(=O)c2c(nc3n(-c4ccccc4O)c(C)c(C)n23)n(C)c1=O	i
O=S(=O)(Nc1ccc(Nc2cc(-n3cccn3)ncn2)cc1)c1cccs1	i
CC(=O)N(C)c1ccc(OCC(O)CN2CCN(c3ccccn3)CC2)cc1 (centres undefined)	i
CCc1ccccc1NC(=O)Nc1cnc(-n2ccnc2C)nc1	i
CCN1CCN(CC(=O)Nc2cccc(C(F)(F)F)c2)C(=O)C1=O	i
Cc1ccccc1C(=O)N1CCN(Cc2nc(C(C)(C)C)cs2)CC1	i
Cc1nc2sc(C(c3ccc(F)c(F)c3)N3CC(C)CC(C)C3)c(O)n2n1 (centres undefined)	i
CCOC(=O)CNC(=O)CSc1nnc(C)c2cnn(-c3ccccc3)c12	i
COc1ccc(C(=O)NCCCS(=O)(=O)N2CCN(c3ccccc3)CC2)cc1OC	i
O=C(CSc1ccc(F)cc1)N1CCCC(c2nnc(-c3ccc4c(c3)OCO4)o2)C1 (centres undefined)	i
CCOC(=O)C1=C(C)N=c2s/c(=C/c3cnn(C)c3C)c(=O)n2C1c1ccc(F)cc1 (centres undefined)	i
COc1cccc(-c2noc(Cn3ccn(-c4ccccc4)c(=O)c3=O)n2)c1	i

3 neighbouring entries already listed, for reference:
SMILES	GIRK2 activ
O=C(CSc1ccc(F)cc1)N1CCCC(c2nnc(-c3ccc4c(c3)OCO4)o2)C1 (centres undefined)	i
CCOC(=O)C1=C(C)N=c2s/c(=C/c3cnn(C)c3C)c(=O)n2C1c1ccc(F)cc1 (centres undefined)	i
COc1cccc(-c2noc(Cn3ccn(-c4ccccc4)c(=O)c3=O)n2)c1	i

Later entries.
SMILES	GIRK2 activ
Cc1cc(C)n(-c2ccc(C(=O)Nc3cccc(Cl)c3Cl)nn2)n1	i
CC(=O)c1ccc(NC(=O)Cn2cnc3c(-c4ccncc4)nsc3c2=O)cc1	i
COc1ccc(N2CC(C)Cn3c2nc2c3c(=O)n(CCN3CCOCC3)c(=O)n2C)cc1 (centres undefined)	i
CC(C)CCN1C(=O)C(C)(C)COc2ccc(NC(=O)COc3ccc(F)cc3)cc21	i
CN1C(=O)c2oc3ccccc3c(=O)c2C1c1ccccn1 (centres undefined)	i
O=C(NCC1CCN(C2CCCC2)CC1)C1(c2ccccc2)CCOCC1	i
COc1ccc2nc(-c3ccc(C)c(NC(=O)NC4CCCCC4)c3)cn2n1	i
O=C(Oc1ccc2cc(-c3nc4ccccc4s3)c(=O)oc2c1)C1CC1	i
Cc1cc(C)c(NC(=O)CSc2cc(-n3nc(C)cc3C)ncn2)c(C)c1	i
Cc1cc(OCC(=O)N(C)c2ccc(F)cc2)nc(N2CCC(C)CC2)n1	i
COc1cc(NC(=O)c2nnn(Cc3nc(-c4ccc(OC)cc4OC)oc3C)c2N)cc(OC)c1	i
CCN(C(=O)Cn1c(C)nc2c(c1=O)CN(Cc1ccccc1)CC2)c1ccccc1	i
COc1ccc(C(=O)N2CCN(CC(O)c3cccs3)CC2)cc1 (centres undefined)	i
FC(F)(F)c1cccc(Nc2nccc(-c3cnn4nc(-c5ccccc5)ccc34)n2)c1	i
N#CC1=C(SCC(=O)Nc2ccccc2)NC(=O)CC1c1cccc([N+](=O)[O-])c1 (centres undefined)	i
COc1cccc(N2CCN(c3ccc(S(=O)(=O)C(C)(C)C)nn3)CC2)c1	i
COc1cc(NC(=O)Cn2ncc3c(c2=O)N(C)C(=O)CS3)cc(OC)c1	i
Cc1cc(C(=O)N2CCOCC2)n(CC(=O)NC(C)c2ccccc2)n1 (centres undefined)	i
COc1ccc(NC(=O)c2c(O)c3sccc3n(C)c2=O)cc1Cl	i
CS(=O)(=O)c1cccc2sc(N3CCN(C(=O)c4cccc(F)c4)CC3)nc12	i
COc1ccc(CCC(=O)N2CCC(CSCc3ccco3)CC2)cc1	i
Cc1ccc(N2CC(C(=O)N3C4CCC3COC4)CC2=O)cc1C (centres undefined)	i
C=C(C)COc1ccc(-c2ncncc2Oc2cccc(OC)c2)c(O)c1	i
COc1cc(/C=C2\SC(=S)N(c3cccc(C)c3C)C2=O)ccc1O	i
CCOc1ccc(-c2ccc(N3CCN(C(=O)Nc4ccccc4F)CC3)nn2)cc1	i

The list continues:
SMILES	GIRK2 activ
C=CCN1CC(c2nc3ccccc3n2Cc2ccc(Cl)cc2)CC1=O (centres undefined)	i
CCc1cc2c(NCc3cccnc3)nc(C)nc2s1	i
CNC(=O)c1sccc1S(=O)(=O)N(C)c1ccc(C)cc1	i
COc1cccc(-c2cc(C(=O)Nc3ccccc3C(N)=O)n(C)n2)c1	i
CCN(CCCNC(=O)CCCn1c(=O)[nH]c2ccccc2c1=O)c1ccccc1	i
O=C(c1cnn(-c2ccccc2)c1-n1cccc1)N1CC=C(c2ccccc2)CC1	i
NC(=O)CCc1csc(NC(=O)c2ccc(=O)[nH]c2)n1	i
Cc1cc(C)cc(N2C=C(C#N)S(=O)(=O)c3ccc(F)cc32)c1	i
N#CC1=CN(c2ccc(Br)cc2)c2cc(F)ccc2S1(=O)=O	i
CC(C)CCNC(=O)c1cn(-c2cccc(Cl)c2)nn1	i
O=C(c1ccccc1Cl)N1CCN(S(=O)(=O)C2CC2)CC1	i
Cc1nc2c(c(=O)n1CC(=O)Nc1ccc3c(c1)OCO3)CN(Cc1ccccc1)CC2	i
O=C(Cn1cccc(-c2nc(-c3ccc(F)cc3)no2)c1=O)Nc1ccc2c(c1)OCCO2	i
O=C(CSc1ccncc1)Nc1cc(N2CCN(Cc3ccccc3)CC2)ncn1	i
COCCn1c(-n2nc(C)cc2C)nc2c1c(=O)n(CC(C)C)c(=O)n2C	i
Cn1c(C2CCC(CNC(=O)c3cc(-c4ccco4)on3)CC2)nc2ccccc21 (centres undefined)	i
COc1ccc(S(=O)(=O)N2CCCc3cc(NC(=O)CCc4ccccc4)ccc32)cc1	i
Nc1nc(SCC(=O)Nc2cccc(-c3nc4ccccc4s3)c2)n[nH]1	i
O=C(Cn1c(=O)oc2ccccc21)NCC1(c2ccccc2)CCOCC1	i
O=C(/C=C/CCCC/C=C/c1ccc2c(c1)OCO2)N1CCCCC1	i
Cc1cc(-c2nnc(NC(=O)NCc3cccs3)o2)c(C)o1	i
COc1nn(C)cc1C(=O)Nc1cnoc1	i
Cc1ccccc1NC(=O)Nc1ccc(CC(=O)NCc2cccs2)cc1	i
O=C(NC1CCSC1=O)c1cc2n(n1)CCCO2 (centres undefined)	i
Cc1nc(SCc2nc(-c3ccc4c(c3)OCO4)no2)[nH]c(=O)c1C	i

Screens deposited in PubChem by Vanderbilt University.
